Screening results (PubChem)
Sa growth inh – S. aureus growth inhibition; S. aureus RN4220 growth, OD600, 20 h, 42 °C; active compounds read low; relative growth, % (concentration not given with the values); 0.53% of 170,000 active;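 active = growth at 42 °C up to 50% and 20 or more points under that at 30 °C, or under 10% at both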;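 also: 300 nL library stock went into each well; scaled to the means of positive and negative controls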
GIV-Gai inh – GIV-Galpha-i interaction inhibition; P08753; Galpha-i3/FITC-GIV peptide fluorescence polarization, 90 min; active compounds read low; scaled: aluminum fluoride 0%, vehicle 100%; percent of control (FP), % (test concentration not listed); 0.42% of 210,000 active; AID 1224905;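 active = replicate mean at 85% of control or lower, very high polarization wells dropped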;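 also: lower values mean more displacement of the GIV peptide from Galpha-i3; wells of about 15 µL received 100 nL stock; the first replicate is given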
Target sequence (P08753 whole entry, looked up): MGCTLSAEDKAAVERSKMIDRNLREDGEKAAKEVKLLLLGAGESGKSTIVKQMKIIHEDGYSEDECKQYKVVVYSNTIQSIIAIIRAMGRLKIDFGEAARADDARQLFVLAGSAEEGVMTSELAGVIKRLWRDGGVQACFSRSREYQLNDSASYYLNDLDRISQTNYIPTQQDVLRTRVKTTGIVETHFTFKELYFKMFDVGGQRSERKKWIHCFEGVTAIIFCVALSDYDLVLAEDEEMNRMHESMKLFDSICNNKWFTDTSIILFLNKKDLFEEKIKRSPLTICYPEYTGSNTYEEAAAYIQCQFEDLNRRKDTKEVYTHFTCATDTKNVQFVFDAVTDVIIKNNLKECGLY
HCMV UL50-53 inh – inhibitors of HCMV UL50-UL53 nuclear egress complex interaction | 0.15% of 190,000 active | inhibition, % (no concentration beside the values) | HTRF UL50-UL53 interaction, normalized percent inhibition;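 active = both replicates at 50% or more, plus weaker picks with an unusually low signal ratio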;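 also: stock transfer was 100 nL into about 20 µL; 0% = negative control wells and 100% = wells with untagged competitor protein; inactives centre near -12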
Sa growth inh second temp – also measured in Sa growth inh; calls as there; relative growth, %; measured here: growth at 30 °C;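 optical density after 20 h as mean of two plates; 100% = untreated growth and lower means inhibition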
Starred values were filed as active, the others as inactive; nt = not tested or not shown; & = joins results of further samples.

SMILES	Sa growth inh	Sa growth inh second temp	GIV-Gai inh	HCMV UL50-53 inh
Cc1cc(/C=N/n2cnnc2)c(C)n1-c1ccc(C(=O)O)cc1	105	86	nt	-8
O=C(Nc1cccc(O)c1)c1cc2nc(-c3ccc(Br)cc3)cc(C(F)(F)F)n2n1	94	103	104	-19
Cc1cccc(NC(=O)Cn2nnc(C(=O)NCc3ccc4c(c3)OCO4)c2N)c1C	105	82	111	14
CCOC(=O)c1c(C)c(-c2ccccc2)n(CC(=O)N(CC)CC)c1C	99	86	102	nt
COCc1cc(C)nc2sc3c(c12)NC(C)N(c1ccc(C)cc1)C3=O (stereo not given)	nt	nt	118	-42
O=C(O)CCCN1C(=O)c2cccnc2Sc2ccccc21	98	85	104	-16
Fc1cccc(Cl)c1Cn1c(-c2cccs2)nc2ccccc21	76	56	105	-21
CC1CCc2cc(F)ccc2N1C(=O)Nc1ccccc1 (stereo not given)	131	104	nt	7
C=CCc1cc(/C=C2\C(=O)NC(=S)N(c3ccccc3)C2=O)cc(OC)c1OCC(=O)O	nt	nt	108	5
Cc1ccc2c(c1)C(C)(C)C1(C)N(Cc3ccccc3)C(=O)CN21 (stereo not given)	106	100	102	10
Cn1cc(C(=O)N2CCOCC2)c2[nH]c(=O)n(-c3ccc(Cl)cc3)c(=O)c21	nt	nt	101	-12
CS(=O)(=O)N(Cc1ccccc1Cl)c1ccc(C(=O)Nc2ccc3c(c2)OCO3)cc1	114	80	108	nt
CCOc1cc(C(=O)Nc2ccc(NC(=O)c3cc4ccccc4o3)c(OC)c2)cc(OCC)c1OCC	99	106	106	6
CC1CCCCN1CCCNC(=O)Nc1ccc(Cl)cc1 (stereo not given)	99	87	96	-25
c1ccc(N2CCN(Cc3cn4ccccc4n3)CC2)nc1	106	83	nt	-12
Oc1[nH]c2ccccc2c1N=NC1=NCCC1	94	88	nt	-83
CC(C)CNc1nc(-c2ccccc2)cs1	74	61	100	51
O=C(c1cccc(N2CCCS2(=O)=O)c1)N1CCN(c2ccccc2)CC1	98	81	102	-27
Cc1nn(-c2ccccc2)c(=O)c2ccccc12	96	70	105	-9
C[C@H]1c2ccoc2CC2[C@H]1CCC1[C@@](C)(CC(=O)O)CCC[C@]21C (stereo not given in full)	118	94	nt	1
CC12CCC(C(=O)N3NC(=O)[C@@H](c4ccccc4)[C@@H]3c3ccccc3)(OC1=O)C2(C)C (stereo not given in full)	27	20	98	22
Cc1ccccc1OCc1nnc(SCC(N)=O)n1C	97	108	nt	-7
O=c1/c(=C\c2cccc(Oc3ccc(C(F)(F)F)cc3[N+](=O)[O-])c2)sc2nc3ccccc3n12	nt	nt	101	-19
Cc1cc(C)n(CCCNC(=O)c2ccc(S(=O)(=O)NCc3ccco3)cc2)n1	80	82	nt	-26
O=C(CC1CCN(S(=O)(=O)c2ccccc2)CC1)NCCCN1CCOCC1	nt	nt	96	-13

Next part.
SMILES	Sa growth inh	Sa growth inh second temp	GIV-Gai inh	HCMV UL50-53 inh
COc1ccccc1CC(=O)N1CCN(S(=O)(=O)c2ccccc2C(F)(F)F)CC1	98	90	nt	3
N#Cc1cccc(NC(=O)CNc2ccc3ccccc3c2)c1	110	90	nt	-20
CC1=NNC(=O)C1CC(=O)N/N=C/c1sccc1C (stereo not given)	98	89	98	-52
Cc1cc2occ(CC(=O)O)c2cc1C(C)C	114	102	nt	-15
O=C(NC1CC(=O)N(c2cccc(F)c2)C1)c1cccs1 (stereo not given)	135	85	95	nt
O/N=C/c1nc(-c2ccc(Cl)cc2)n2ccccc12	102	93	nt	-26
CC(=O)Nc1ccc(NC(=O)COc2ccc(C)c(C)c2)cc1	103	92	98	-5
CCOC(=O)C1CCN(c2ncnc3c2oc2ccccc23)CC1	94	86	98&103	22&-14
CCn1cc(C2CC(=O)N(c3ccccc3)C2=O)c2ccccc21 (stereo not given)	85	83	101	-10
O=C(Cc1cccs1)Nc1c[nH]c(=O)[nH]c1=O	99	101	101	-15
CCc1nc2ccc(C(=O)NCc3ccc(SC)cc3)cc2nc1CC	134	97	104	nt
Cc1ccc(S(=O)(=O)N2CCCCC2C(=O)NC(C)c2ccc3c(c2)OCCO3)cc1 (stereo not given)	96	93	nt	-12
CCN(CC)C(=O)C1=C(C)N=C2SC(C#N)=C(N)N2C1c1ccc(Cl)cc1 (stereo not given)	99	82	106	-18
CC(=O)N(C(C)=O)c1cc(C(=O)O)ccc1Sc1ccc(Br)cc1	84	92	100	-3
CCC12CN3CC(CC)(CN(C1)C(=O)c1ccccc1C3=O)C2=O	94	91	101	nt
Cc1noc2c1C(c1ccc(O)c(O)c1)C1=C(CC(c3ccccc3)CC1=O)N2 (stereo not given)	nt	nt	109	-12
COc1cc(C2CC(=O)C3=C(C2)Nc2onc(C)c2C3c2ccc(Cl)cc2)ccc1O (stereo not given)	nt	nt	107	0
O=C(NCc1ccccn1)c1ccc(CSCc2cccc(Cl)c2)o1	88	74	101	5
O=C(NC1=NCCS1)c1cc2nc(Nc3ccccc3)sc2s1	101	95	nt	-26
O=C1Nc2ccc(S(=O)(=O)N3CCCC3C(=O)O)c3cccc1c23 (stereo not given)	112	96	96	nt
Cc1nc2c(s1)c(C)nn2-c1ccccc1	nt	nt	103	-32
CC(Sc1oc(-c2cccs2)nc1S(=O)(=O)c1ccccc1)c1ccccc1 (stereo not given)	91	90	103	-8
N#Cc1c(N)c(C(=O)c2ccccc2)n2c1CCC2	92	84	110	nt
COc1ccc(/C=C(\C#N)S(=O)(=O)c2ccccc2Cl)s1	109	95	113	6
O=C(Cc1csc(NC(=O)c2ccco2)n1)NCc1ccc(Cl)cc1	111	93	nt	-33

Sorted by the number under Sa growth inh second temp (largest number first): four of the compounds above.
Molecule	Sa growth inh second temp	GIV-Gai inh
Cc1cc2occ(CC(=O)O)c2cc1C(C)C	102	nt
O=C(Cc1cccs1)Nc1c[nH]c(=O)[nH]c1=O	101	101
Cc1ccc(S(=O)(=O)N2CCCCC2C(=O)NC(C)c2ccc3c(c2)OCCO3)cc1 (stereo not given)	93	nt
CCOC(=O)C1CCN(c2ncnc3c2oc2ccccc23)CC1	86	98&103

Following part
SMILES	Sa growth inh	Sa growth inh second temp	GIV-Gai inh	HCMV UL50-53 inh
O=C(NCC1CCCO1)c1cc(-c2cccnc2)nc2ccc(Br)cc12 (stereo not given)	nt	nt	125	-69
CCOC(=O)c1c(C=O)oc2c(C)cc(OC(=O)c3ccc(Cl)cc3)c(Br)c12	nt	nt	98	-6
CCCCNC(=O)c1ccc2cn[nH]c2c1	108	108	99	5
COc1ccc(S(=O)(=O)NC2(C(F)(F)F)NC(=O)N(CCc3ccccc3)C2=O)cc1 (stereo not given)	94	97	100	6
CCC(Sc1nc2ccccc2c2nc(CCn3c(C)nc4ccccc43)nn12)C(=O)Nc1ccc(F)cc1 (stereo not given)	92	92	101	nt
CCOc1ccc2nc(SC3CC(=O)N(c4ccc(OC)cc4OC)C3=O)sc2c1 (stereo not given)	nt	nt	106	-4
O=C(CSc1nnc2n1CCCCC2)NC(=O)c1cccs1	90	98	nt	-12
CCN(CC)C(=O)c1cccc(C)c1	83	87	nt	-62
Cc1ccc(C2=NN(C(=O)CCC(=O)O)C(Cc3cc4cccc(C)c4[nH]c3=O)C2)cc1 (stereo not given)	nt	nt	104	-19
CCc1ccc(S(=O)(=O)Nc2cc(-c3cn4ccccc4n3)ccc2C)cc1	104	98	95	4
Cc1ccc(-n2c(C)cc(C(=O)OCc3ccc(C#N)cc3)c2C)cc1	88	99	nt	-23
O=C(COc1ccc(F)cc1F)n1cnc2ccccc21	94	91	nt	-11
CCCCCCCCCCC[C@@H](C[C@@H]1OC(=O)[C@H]1CCCCCC)OC(=O)[C@H](CC(C)C)NC=O	80	78	nt	6
COC(=O)c1c(C)[nH]c(C2=NNC(=NC3CCCCC3)SC2C)c1C (stereo not given)	93	80	nt	-51
O=C(O)c1ccc(C2SCC(=O)N2NS(=O)(=O)c2ccc(F)cc2)cc1 (stereo not given)	90	82	nt	-17
NC(=O)c1cc(Cl)ccc1I	98	99	105	4
CN(CC(O)COCc1cccs1)C1CCCCC1 (stereo not given)	99	100	nt	26
Clc1ccc(SCc2csc(-c3ccsc3)n2)cc1	96	95	103	-24
O=C(O)C1CCC(=O)N1Cc1cccs1 (stereo not given)	nt	nt	99	-20
Cc1cc(C)nc(SCC(=O)N2c3ccccc3C(C)CC2(C)C)n1 (stereo not given)	100	88	101	nt
O=S(=O)(Nc1cccc(-c2cn3ccccc3n2)c1)c1ccc(F)cc1	nt	nt	102	-23
O=C(NC(N1CCCC1=O)(C(F)(F)F)C(F)(F)F)c1cccnc1	91	78	96	-27
COc1ccc(-c2n[nH]c3c2cnc2ccccc23)cc1	90	93	97	-3
CCSc1cc(C(F)(F)F)nc2cc(C(C)(C)C)nn12	101	88	107	4
CC1Cc2ccccc2N1C(=O)CSc1ccc2c(c1)OCCO2 (stereo not given)	111	91	nt	-10

3 entries already listed, sorted by count of non-hydrogen atoms, rising.
SMILES	Sa growth inh	Sa growth inh second temp	GIV-Gai inh	HCMV UL50-53 inh
O=C(O)C1CCC(=O)N1Cc1cccs1 (stereo not given)	nt	nt	99	-20
COC(=O)c1c(C)[nH]c(C2=NNC(=NC3CCCCC3)SC2C)c1C (stereo not given)	93	80	nt	-51
CCOC(=O)c1c(C=O)oc2c(C)cc(OC(=O)c3ccc(Cl)cc3)c(Br)c12	nt	nt	98	-6

Next part.
SMILES	Sa growth inh	Sa growth inh second temp	GIV-Gai inh	HCMV UL50-53 inh
O=C(COc1ccc([N+](=O)[O-])cc1)Nc1cccc2cccnc12	100	88	105	-15
O=C(O)C(O)c1ccccc1Cl (stereo not given)	112	87	97	-3
CCC(C)Nc1nc(OC)nc(Oc2ccc(=O)[nH]n2)n1 (stereo not given)	90	77	99	-11
Cc1cc2nc(COC(=O)COc3ccc(C)c(C)c3)cc(=O)n2o1	nt	nt	104	-30
CCC1CN(C(=O)NCc2cccc(OC)c2)c2ccccc2O1 (stereo not given)	105	85	102	-8
CCCCSc1nnc2sc3ccccc3n12	83	69	101	-26
COc1cc(C(=O)N2CCN(c3ccc(Nc4ccccc4)nn3)CC2)cc(OC)c1OC	107	88	98	nt
COC(=O)c1ccc(C(=O)Nc2ccc3nc(CN4CCCCC4)[nH]c3c2)cc1	86	89	105	-36
CC(=O)O[C@H]1CC2(C)[C@@H](C[C@@H](O)[C@H]3[C@@]4(C)CC[C@@H](O)[C@@H](C)[C@@H]4CC[C@@]32C)C1=C(CCC=C(C)C)C(=O)O (stereo not given in full)	nt	nt	102	-25
CCOC(=O)c1ccccc1NC(=O)CSc1nc2ncccc2[nH]1	95	97	101	nt
Cc1c(C(=O)O)oc2ccc3c(c12)C(=O)CC1(CCCC1)O3	89	88	96	nt
CCCCOC(=O)CSC1=C(C#N)C(c2cccnc2)C(C(=O)OCC)=C(c2ccccc2)N1 (stereo not given)	nt	nt	97	-13
CCOC(=O)c1nn(-c2ccccc2)c(=O)cc1OCC(=O)Nc1ccc2c(c1)OCCO2	109	85	105	0
CCc1ccccc1NC(=O)CNCc1ccccc1	94	79	100	-345
COc1cc(=O)n(-c2ccc(C)cc2)nc1C(=O)Nc1cccc(Br)c1	nt	nt	106	-8
COc1cc(-c2cc(C#N)on2)cc(OC)c1OC	82	84	nt	-2
O=c1[nH]c(=O)n(Cc2cccnc2)c2c1CN(Cc1ccccc1)CN2	nt	nt	101	10
Cc1ccc2nc(C3CCCCC3)[nH]c2c1	69	58	100	nt
CCC(C)NC(=O)Cn1cc2c(n1)CCC(C)C2 (stereo not given)	92	88	99	1
Cc1ccc2nc(NC(=O)c3ccco3)sc2c1	100	65	nt	6&-10
CO/C([O-])=N/c1c[n+](-c2ccc(Cl)cc2)no1	107	81	nt	-93
COc1ccc(C(=O)c2oc3cc(OC)ccc3c2C)cc1	70	91	nt	-31
Cc1nc(SCC(=O)N2CCSc3ccccc32)c(C#N)c(C)c1C	104	99	nt	8
CC1CCN2C(c3ccc(Cl)cc3)=CSC2=N1 (stereo not given)	76	72	nt	-20
CN1CCN(CC(=O)N2CCCc3ccccc32)CC1	nt	nt	104	-16

The results go on:
SMILES	Sa growth inh	Sa growth inh second temp	GIV-Gai inh	HCMV UL50-53 inh
Cc1ccc(NC(=O)c2ccsc2)cc1NS(C)(=O)=O	95	83	96	-26
FC(F)(F)N(c1ccccc1)c1ccccc1	108	90	nt	-4
Cc1ccccc1Cn1c2ccccc2c2cnn(CC(=O)NCc3ccccn3)c(=O)c21	103	77	102	-23
CCOc1ccc2c(c1)c(=O)c1cccnc1n2Cc1ccccc1C	94	91	105	-53
COc1ccc(OC)c(C2C(C(N)=O)=C(C)Nc3nc(-c4cccc(Cl)c4)nn32)c1 (stereo not given)	110	83	106	15
COc1ccc(-c2nn(C)c3sc(C(=O)NCCCN4CCOCC4)cc23)cc1OC	134	96	99	4
O=C(Nc1cccc(-c2nn[nH]n2)c1)c1cccs1	99	101	104	0
COC(=O)c1ccccc1NC(=O)Cn1cc(S(=O)(=O)Cc2ccccc2F)c2ccccc21	86	83	106	nt
COc1ccc(-c2noc(CN3CCCC(C(=O)O)C3)n2)cc1OC (stereo not given)	96	85	101	-32
CCCCN(C)c1ncc(C(=O)O)cc1NS(=O)(=O)c1cc(C)cc(C)c1	nt	nt	107	-31

Just GIV-Gai inh, Sa growth inh and Sa growth inh second temp (3 entries from above):
| compound | GIV-Gai inh | Sa growth inh | Sa growth inh second temp |
| --- | --- | --- | --- |
| FC(F)(F)N(c1ccccc1)c1ccccc1 | nt | 108 | 90 |
| Cc1ccccc1Cn1c2ccccc2c2cnn(CC(=O)NCc3ccccn3)c(=O)c21 | 102 | 103 | 77 |
| CCOc1ccc2c(c1)c(=O)c1cccnc1n2Cc1ccccc1C | 105 | 94 | 91 |
